Compound activity from PubChem BioAssay.
CCR6 antagonist: antagonists of human CCR6 receptor; inhibition, % at 20 µM; CHO-K1 CCR6 PathHunter beta-arrestin, luminescence, CCL20-stimulated; 0.49% of 340,000 active;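 active = compounds whose inhibition of the agonist-driven luminescence signal at 20 µM reaches about 50%, limit read from the data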;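 note: cells stimulated with CCL20 at 14 nM final; plate controls were DMSO with CCL20 for no effect and DMSO without agonist for full effect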
Target sequence (P51684 whole entry, looked up): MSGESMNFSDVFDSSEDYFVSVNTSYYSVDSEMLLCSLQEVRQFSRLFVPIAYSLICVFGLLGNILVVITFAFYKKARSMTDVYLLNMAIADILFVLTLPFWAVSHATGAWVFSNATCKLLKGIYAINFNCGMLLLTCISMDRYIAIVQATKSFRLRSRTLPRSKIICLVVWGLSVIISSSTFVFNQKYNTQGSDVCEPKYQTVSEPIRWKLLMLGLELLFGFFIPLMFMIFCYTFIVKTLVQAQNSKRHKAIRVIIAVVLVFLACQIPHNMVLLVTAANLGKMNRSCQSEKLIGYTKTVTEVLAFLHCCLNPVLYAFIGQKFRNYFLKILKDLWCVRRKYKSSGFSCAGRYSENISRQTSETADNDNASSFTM
EBI2 block: blocks human EBI2 receptor beta-arrestin signaling; P32249; EBI2 beta-arrestin recruitment, luminescence, 7a,25-OHC stimulated; inhibition, % at 5 µM; 0.81% of 360,000 active; in the data active = inhibition above about 38%;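 note: enzyme fragment complementation signal reports receptor beta-arrestin coupling in cells; 0% = agonist plus DMSO wells and 100% = wells without agonist; some results beyond the cut were filed as inactive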
Target sequence (P32249 whole entry, looked up, the tested form may be a part): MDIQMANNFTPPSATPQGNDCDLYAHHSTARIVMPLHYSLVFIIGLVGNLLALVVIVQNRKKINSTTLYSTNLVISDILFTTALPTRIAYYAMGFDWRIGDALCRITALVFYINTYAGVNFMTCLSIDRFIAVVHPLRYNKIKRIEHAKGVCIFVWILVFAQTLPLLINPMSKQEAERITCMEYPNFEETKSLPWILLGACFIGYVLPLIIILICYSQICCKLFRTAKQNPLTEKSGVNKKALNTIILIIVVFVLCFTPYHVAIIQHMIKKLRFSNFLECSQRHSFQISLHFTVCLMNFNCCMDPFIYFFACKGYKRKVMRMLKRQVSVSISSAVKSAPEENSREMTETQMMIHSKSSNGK
UBC13 polyUb: blocks human UBC13 polyubiquitin chain formation | P61088 | TR-FRET | inhibition, % at 20 µM | 0.47% of 330,000 active; in the data active = inhibition above about 45%, passing the limit was not always enough; inconclusive = no clear call, values can overlap the other calls
697 NFkB inh: lowers PMA/ionomycin-induced NF-kB signal in 697 B cells; 697 B-cell NF-kB luciferase reporter, 16 h; AID 435022; 0.33% of 330,000 active; inhibition, % at 4 µM; in the data active = inhibition above about 35%
SENP8 inh: blocks the human protease SENP8. 1.2% of 330,000 active. purified SENP8, Z-RLRGG-aminoluciferin cleavage, luminescence. Q96LD8. inhibition, % at 10 µM
Gli-Sufu antag: antagonists of Gli-Sufu signaling. Sufu-KO-LIGHT fibroblasts, Gli luciferase reporter luminescence. 0.74% of 340,000 active. inhibition, % at 5 µM;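 active = inhibition above about 55%, limit read from the data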;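 note: 0% = DMSO-treated cells and 100% = wells with medium but no cells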
Jurkat NFkB inh: inhibitors of the PMA/ionomycin-induced NF-kB reporter in Jurkat cells; PMA/ionomycin-induced NF-kB luciferase reporter, luminescence; 0.53% of 330,000 active; inhibition, % at 4 µM; AID 435003
* hit, by the source's call; ? = inconclusive; · = not tested or not shown. Cut-off read from the data, not from the text of the source, unless noted: active = inhibition above about 50%; inactive = the rest.

#1 CCOC(=O)CNC(=O)c1sc2nc(C)cc(C)c2c1N
#2 CCOC(=O)C1=C(C)NC2=C(C(=O)CC(C)(C)C2)C1c1cccc(C)n1 (centres undefined)
#3 Cc1ccc(-c2cc(C(F)(F)F)c(C#N)c(SCCC#N)n2)o1
#4 N#CC1(C#N)C2=C(CCCC2)NC(c2ccccc2)C1(C#N)C#N (centres undefined)
#5 CCOc1cccc2cc(-c3nnc(NCc4ccco4)s3)c(=O)oc12
#6 O=C(O)CCCC(=O)N1CCN(c2nc(-c3ccccc3)c3ccccc3n2)CC1
#7 O=C(Cc1cn2ccsc2n1)Nc1nc2c(s1)CN(Cc1ccccc1)CC2
#8 COC(=O)c1c(C#N)c(N)nc2c1CCCC2
entry no.	1	2	3	4	5	6	7	8
CCR6 antagonist	3	9	-19	·	-16	-4	13	-7
EBI2 block	-4	2	4	·	1	-7	-2	-3
UBC13 polyUb	-1	-4	15	-12	-26	6	-3	19
697 NFkB inh	2	-17	5	-7	-45	-5	12	-3
SENP8 inh	-4	5	4	5	-3	-3	5	15
Gli-Sufu antag	1	-19	13	·	-26	-3	2	1
Jurkat NFkB inh	9	1	-14	1	0	6	-3	3

#9 CCOC(=O)C1=C(C)NC(=O)NC1c1ccc(OC(C)C(=O)O)c(OC)c1 (centres undefined)
#10 CC(=O)Nc1c2c3c(cccc3n(C)c1=O)C(=O)c1ccccc1-2
#11 Cc1cc(C)c2c(n1)nn1c(NCCOCCO)cc(C)nc21
#12 CCc1cc2c(CN3CCN(C)CC3)cc(=O)oc2cc1O
#13 Cc1ccc2nc3c(cc(C(N)=S)c(=N)n3CCCOC(C)C)c(=O)n2c1
#14 CCCCn1nc(NC(=O)c2cccs2)c2cc3ccccc3nc21
#15 O=c1[nH]c2ccc(Cl)cc2c(-c2ccccc2)c1N1CCOCC1
#16 Cc1cc(N2CCC(N(C)C3CCCC3)CC2)nc2cc(O)ccc12
entry no.	9	10	11	12	13	14	15	16
CCR6 antagonist	-6	6	-18	2	20	13	-3	6
EBI2 block	-2	-5	-10	11	1	23	14	-4
UBC13 polyUb	4	3	14	2	0	11	?	19
697 NFkB inh	11	13	-5	-8	20	-6	17	18
SENP8 inh	4	2	1	-10	8	-3	0	-4
Gli-Sufu antag	-5	-12	3	9	4	-13	-19	11
Jurkat NFkB inh	6	6	-14	-19	40	-6	13	9

#17 C=CCNC(=O)c1c(N)n(-c2cccc(S(N)(=O)=O)c2)c2nc3ccccc3nc12
#18 Nc1c(S(=O)(=O)c2cccs2)c2nc3ccccc3nc2n1CC1CCCO1 (centres undefined)
#19 CCC(c1nnnn1Cc1ccco1)N(CCc1ccccc1)Cc1cc2cccc(C)c2[nH]c1=O (centres undefined)
#20 Cc1ccc(-c2nc3cnccn3c2Nc2ccccc2)o1
#21 CCCCNC(=O)c1cc2c(=O)n3cccc(C)c3nc2n(Cc2ccccc2)c1=N
#22 O=C(CN1C(=O)c2cccc3cccc1c23)NCC1CCCO1 (centres undefined)
#23 O=C(NCc1ccco1)c1cnn2c(C(F)(F)F)cc(-c3cccs3)nc12
#24 COc1ccc2c(c1)[nH]c1c(=O)n(CCc3cnc[nH]3)cnc12
entry no.	17	18	19	20	21	22	23	24
CCR6 antagonist	-11	-10	21	32	30	6	-7	9
EBI2 block	0	1	8	-1	28	7	13	8
UBC13 polyUb	-1	11	2	12	4	10	3	-4
697 NFkB inh	1	20	0	-17	22	18	11	-4
SENP8 inh	15	5	-6	3	-4	-9	-4	-6
Gli-Sufu antag	-1	11	7	-10	27	7	15	5
Jurkat NFkB inh	-12	15	5	-40	28	-3	-12	-6

#25 COCCn1c(N)c(C(=O)OCc2ccccc2)c2nc3ccccc3nc21
#26 C=CCn1c(N)c(C(=O)NCC2CCCO2)c2nc3ccccc3nc21 (centres undefined)
#27 COc1ccccc1C(=O)N1CCN(c2nc3cc(C)c(C)cc3cc2C#N)CC1
#28 CN1C=CC2=C(C#N)C(N)C(C#N)(C#N)C(c3ccccc3)C2C1 (centres undefined)
#29 O=C(Nc1cccc2c1C(=O)NC2=O)c1ccc(S(=O)(=O)N2CCCC2)cc1
#30 CCOC(=O)CC(=O)CSc1nc(-c2cccnc2)ccc1C#N
#31 COc1ccc2cc(CN(CCCN3CCOCC3)Cc3nnnn3C3CCCCC3)c(=O)[nH]c2c1
#32 Cc1onc(-c2ccccc2Cl)c1C(=O)Nc1cccc2nsnc12
entry no.	25	26	27	28	29	30	31	32
CCR6 antagonist	18	5	8	17	7	12	-10	16
EBI2 block	12	1	0	-1	-3	5	-4	20
UBC13 polyUb	-12	-15	2	-34	20	-3	0	?
697 NFkB inh	-5	12	-22	5	18	-16	13	-44
SENP8 inh	61*	90*	-12	5	6	-3	6	-2
Gli-Sufu antag	11	3	1	-1	-8	-5	-39	5
Jurkat NFkB inh	10	14	-10	-16	0	-27	-17	1

#33 O=C1C2CC=C(Cl)CC2C(=O)N1CC1Cc2ccccc2CO1 (centres undefined)
#34 COc1ccc(C2C=C(c3ccc(Br)s3)Nc3ncnn32)cc1OC (centres undefined)
#35 Cc1c(O)ccc2c3c(c(=O)oc12)CCC(C)C3 (centres undefined)
#36 CCN(CC)c1ccc2c(c1)CCCN2
#37 COC(=O)c1ccc2c(c1)N(C)CCS2
#38 CC(C)OC(=O)CC(=O)CSc1nc2c(cc1C#N)CCCC2
#39 COc1ccc(S(=O)(=O)C(C#N)c2nc3ccccc3nc2N2CCCC(C)C2)cc1 (centres undefined)
#40 CCN(CC)c1nc(C#N)cc(-c2ccc(OC)cc2)n1
entry no.	33	34	35	36	37	38	39	40
CCR6 antagonist	6	·	6	·	6	10	-21	0
EBI2 block	-2	·	-4	·	-4	-3	-10	4
UBC13 polyUb	5	-2	4	-22	10	2	-22	32
697 NFkB inh	8	13	-1	-1	-6	-27	-3	-43
SENP8 inh	-7	-7	-8	23	-3	-8	-9	-3
Gli-Sufu antag	-2	·	1	·	-2	-7	0	15
Jurkat NFkB inh	9	-9	-3	7	-8	-27	-6	48

#41 CCN1C2=C(C(=O)CCC2)C(c2ccc(O)cc2)C2=C1CCCC2=O
#42 Cc1c(C(=O)NC2=NCCS2)oc2ccccc12
#43 C=CCn1c(=N)c(C(=O)NCCCOC)cc2c(=O)n3cccc(C)c3nc21
#44 CCCn1c(C)nc2c(c1=O)c1nc3ccccc3nc1n2CCC1=CCCCC1
#45 Cc1cc(-n2c(=O)c(C#N)cc3c(=O)n4ccccc4nc32)no1
#46 CCN(CC)c1ccc2c(C)c(CN3CCOCC3)c(=O)oc2c1
#47 CCOC(=O)CCc1c(C)c2ccc(O)cc2oc1=O
#48 COc1ccc(C2C(C#N)=C(N)N3C(=C2C#N)Sc2ccccc23)cc1 (centres undefined)
entry no.	41	42	43	44	45	46	47	48
CCR6 antagonist	6	11	-2	24	4	-1	-6	·
EBI2 block	-24	7	12	4	-13	2	-26	·
UBC13 polyUb	4	2	6	16	7	5	23	8
697 NFkB inh	-3	-123	6	-6	6	-13	15	-5
SENP8 inh	-3	70*	-1	-11	-1	6	-9	-6
Gli-Sufu antag	2	-68	16	6	6	-12	-24	·
Jurkat NFkB inh	-8	-169	0	3	4	-28	10	-7

#49 CC(=O)N1CSCC1C(=O)N1CCN(c2ccc(N3CCOCC3)nn2)CC1 (centres undefined)
#50 CCCCn1c(=NC(=O)c2ccc3c(c2)OCO3)c(C#N)cc2c(=O)n3cccc(C)c3nc21
#51 COc1ccc2c3c([nH]c2c1)C1CC2C(CC(O)C(OC)C2C(=O)O)CN1CC3 (centres undefined)
#52 COC(=O)C1=CN(C2CC2)C=C(C(=O)OC)C1c1ccc(C(=O)OC)cc1
#53 CNC(=O)c1c(NC(=O)c2nc3ccccc3s2)sc2c1CCC2
#54 CCC(=O)Nc1ccc(N2CCN(C(=O)c3ccccc3C)CC2)cc1
#55 COCCn1nnnc1CN(Cc1cc2cc(OC)c(OC)cc2[nH]c1=O)C1CCCC1
#56 COc1cc2ccc(=O)oc2cc1O
entry no.	49	50	51	52	53	54	55	56
CCR6 antagonist	-7	1	-6	7	·	-14	9	-14
EBI2 block	-5	-9	-7	4	10	-14	5	-6
UBC13 polyUb	18	-32	-10	13	-33	11	-12	18
697 NFkB inh	-3	-80	15	14	-74	14	-4	17
SENP8 inh	-6	-4	-2	-1	-1	6	-4	5
Gli-Sufu antag	0	33	-19	-8	·	-3	-14	7
Jurkat NFkB inh	7	16	10	-4	-89	10	8	9

#57 COC(=O)C1=CO[C@@H](C)[C@H]2CN3CCc4c([nH]c5ccccc45)[C@@H]3C[C@H]12
#58 COc1cc(NC(=O)c2ccco2)c(OC)cc1NC(=O)c1cc(OC)c(OC)c(OC)c1
#59 CC(C)Cn1c(-c2cccs2)nc2nc3ccccc3nc21
#60 COCCCNC(=O)c1cc2c(=O)n3cccc(C)c3nc2n(C(C)C)c1=N
#61 C=CCn1c(NC(=O)c2ccccc2Cl)c(C#N)c2nc3ccccc3nc21
entry no.	57	58	59	60	61
CCR6 antagonist	15	-7	15	5	-5
EBI2 block	-5	-7	-15	1	2
UBC13 polyUb	13	2	38	3	-29
697 NFkB inh	2	41*	-30	-20	-10
SENP8 inh	3	5	4	-7	97*
Gli-Sufu antag	8	11	-3	0	5
Jurkat NFkB inh	0	6	-3	-21	4

A portion of the library (hit frequency here may not be typical).
